TRPML1 agonist = agonists of human TRPML1 channel | Q9GZU1 | TRPML1-expressing cells, Ca2+ dye fluorescence, FDSS; host cell line not named in the record; reference of the full effect not given here | activation, % (concentration not given with the values) | hit rate 0.12% among 410,000 | AID 624414; in the data active = activation above about 50%; inconclusive = about 30% to 50%; inactive = below about 30%; note: 0% is about no effect; the text of the record puts the active cut at 80%
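Agonist activity was taken from a 110 s kinetic Ca2+ dye read on the FDSS after pinning compounds onto TRPML1-DL cells. The cells were seeded at 1,500/well with Tet inducer, incubated about 16 h, then dye-loaded at room temperature.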
TRPML1 inh = inhibitors of human TRPML1 channel. activity change, negative = inhibition, % (concentration not given with the values). TRPML1-inducible cells, Ca2+ dye fluorescence, FDSS; stronger effect = lower value; inhibition of EC80 agonist-evoked calcium signal. hit rate 0.02% among 390,000. Q9GZU1; in the data active means activity change below about -50%; inconclusive means about -30% to -50%; inactive means above about -30%;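 note: stimulus is agonist 54-4 at its EC80 concentration; % is set by controls: 0 for no effect and ±100 for the full control effect; compound concentration not given in the record; the text of the record puts the active cut at -80%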
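Calcium fluorescence in TRPML1-DL cells induced overnight with Tet: a 110 s read after compound pin addition, then a 110 s antagonist read after challenge with 54-4 at 4 uM final (EC80).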
PINK1 modulator = changes PINK1 expression; PINK1 immunofluorescence, high-content cytometry, 24 h; hit rate 0.2% among 410,000; Potency, µM (series often up to 76.6 µM), inactives show top-dose activation (PINK1 increase), usual class: activators; active = well fitted activation curve with a large enough effect; inconclusive = small, poorly fitted or top-dose-only effect; inactive = flat fitted curve, though single readings scatter; cell line not stated here;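 note: potency is the fitted concentration of half-maximal effect; % of control where 0% means no effect; nearly all actives have a fitted effect of over 65% in size; a mitochondrial uncoupler was the plate control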
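A stable cell line was treated with compounds at 5 concentrations for 24 hours, with CCCP as control. PINK1 levels and mitochondrial localization were measured by immunofluorescence with mitochondrial, cell and nuclear markers after fixation, read by laser-scanning cytometry.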
D2 agonist = agonists of human D2 dopamine receptor (beta-arrestin). P14416. DiscoveRx PathHunter D2 beta-arrestin, luminescence, 90 min; 100% = 57 uM dopamine signal. activation, % (test concentration not listed). hit rate 0.084% among 360,000; in the data active = activation above about 40%; inconclusive = about 15% to 40%; inactive = below about 15%; note: compound concentration not given in the record; the text of the record calls up to 30% inactive
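DiscoveRx PathHunter D2 beta-arrestin cells (2,100/well) attached overnight, then compound-stimulated 90 min at 37 C in HBSS/10 mM HEPES/0.1% Tween-20 buffer; beta-galactosidase complementation read by luminescence after 1 h at ambient temperature. Dopamine 57 uM final (EC100) as control.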
D2 PAM = human D2 receptor positive allosteric modulation. P14416. DiscoveRx D2 beta-arrestin cells, luminescence, 90 min; 100% = 57 uM dopamine signal. potentiation, % (no concentration beside the values). hit rate 0.23% among 360,000. AID 624464; active = potentiation of 50% or more; inconclusive = 30% to 50%; inactive = 30% or less;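 note: compound concentration not given in the record; tested on top of an EC20 dose of dopamine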
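PathHunter D2 cells, attached overnight at 37 deg C, received compound in DMSO plus dopamine at EC20 (50 nM final) for 90 min at 37 deg C. Beta-arrestin recruitment was read as luminescence after 1 h with detection reagent at ambient temperature.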
Six1-Eya2 inh = Six1/Eya2 interaction inhibition; Q15475+O00167; AlphaScreen GST-Six1/His-Eya2 binding, biochemical; stronger effect = lower value; control for the full effect not named in the record; activity change, % (test concentration not listed); hit rate 0.56% among 360,000; AID 651725; in the data active = activity change below about -65%; inconclusive = about -30% to -65%; inactive = above about -30%; note: % is set by controls: 0 for no effect and ±100 for the full control effect; compound concentration not given in the record
Target sequence (O00167 whole entry, looked up): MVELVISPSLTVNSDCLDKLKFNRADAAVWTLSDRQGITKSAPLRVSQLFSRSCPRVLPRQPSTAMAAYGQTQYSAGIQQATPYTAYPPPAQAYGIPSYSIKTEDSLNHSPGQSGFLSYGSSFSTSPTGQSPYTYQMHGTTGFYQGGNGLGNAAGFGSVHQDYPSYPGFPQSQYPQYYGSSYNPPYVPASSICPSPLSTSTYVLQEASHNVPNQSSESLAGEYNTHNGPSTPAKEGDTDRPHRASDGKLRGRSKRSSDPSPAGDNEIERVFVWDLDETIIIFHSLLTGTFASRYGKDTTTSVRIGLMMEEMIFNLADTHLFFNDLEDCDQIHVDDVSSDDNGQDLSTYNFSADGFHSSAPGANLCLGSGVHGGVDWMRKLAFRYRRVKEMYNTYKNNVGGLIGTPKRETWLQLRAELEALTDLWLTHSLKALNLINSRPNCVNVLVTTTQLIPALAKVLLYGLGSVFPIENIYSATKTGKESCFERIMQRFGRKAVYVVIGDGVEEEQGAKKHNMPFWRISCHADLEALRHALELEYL
Target sequence (Q15475 whole entry, looked up): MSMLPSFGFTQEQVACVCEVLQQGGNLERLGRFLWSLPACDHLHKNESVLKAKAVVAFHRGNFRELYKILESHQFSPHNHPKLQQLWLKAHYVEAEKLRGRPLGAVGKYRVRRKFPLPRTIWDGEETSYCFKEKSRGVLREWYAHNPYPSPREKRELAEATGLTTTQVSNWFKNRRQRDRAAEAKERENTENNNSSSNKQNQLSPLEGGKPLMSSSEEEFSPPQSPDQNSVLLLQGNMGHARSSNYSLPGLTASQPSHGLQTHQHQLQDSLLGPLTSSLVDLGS
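GST-Six1 + His-Eya2 (5X stock: 250/500 nM); Tris pH 8.0, 300 mM NaCl, 0.05% BSA, 0.02% Tween 20; GSH donor/Ni acceptor beads; 1 h 37 °C dark; AlphaScreen readout.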
* = called active by the depositor; ? = inconclusive; . = no result given; [ ] = dose if it differs, or a comment. Compounds were not picked by outcome; overall some 1% were active at least once.

smiles	TRPML1 agonist	TRPML1 inh	PINK1 modulator	D2 agonist	D2 PAM	Six1-Eya2 inh
CN(C)c1nc(Oc2ccc(N)cc2)nc(N(C)C)n1	-0.3	-3	0.6%	-0.3	5	4
COCCCn1c(=O)c2ccccc2n2c(=S)[nH]nc12	1.6	-20	-2.0%	?	0	4
COc1ccc(-c2nc3c(s2)CCc2onc(-c4ccc(Br)cc4)c2-3)cc1	-0.2	17	4.5%	-0.2	-5	6
CCOc1ccc(NC(=S)N2CCCC2)cc1	-0.1	-14	1.3%	-4.7	1	4
CCN1C(=O)c2ccc(C(=O)Nc3ccc(O)cc3C)cc2C1=O	-0.3	1	2.2%	11	2	-9
NCc1csc(NC(=O)Nc2cccc(C(F)(F)F)c2)n1	-0.8	.	11%	3.2	-5	-12
CC(C)(C)C(=O)Nc1cc(S(=O)(=O)Nc2ccc(Cl)cc2)ccc1Cl	1.2	-14	?	0.8	20	0
Cc1onc(-c2ccccc2)c1C(=O)Nc1nnc(N(C)Cc2ccccc2)s1	0.4	46	8.2%	-1.9	0	6
COc1ccc(OC)c(/C=c2\sc3nc(-c4cccs4)nn3c2=O)c1	2.3	7	11%	-3.1	4	3
COCCSc1nnc(NC(=O)c2ccc(OC)c([N+](=O)[O-])c2)s1	0.7	-1	-0.1%	0.3	-9	0
Cc1ccccc1N(CC(=O)NCCc1ccccc1)C(=O)c1ccc(N2CCCC2)nc1	0.6	12	0.1%	-3.4	-27	-1
Cc1ccc([C@H]2C(C(=O)O)=CC[C@@H](c3cccc(Cl)c3)N2S(=O)(=O)c2ccc(C)cc2)cc1	0.4	3	-0.6%	0.0	-7	-3
O=C(COc1c(F)c(F)c(C(F)(F)F)c(F)c1F)Nc1ccc(N2CCOCC2)c(Cl)c1	0.5	33	?	-4.9	-18	4
CN1CCN(C(=O)/C(=C\c2cccs2)NC(=O)c2ccco2)CC1	0.1	15	0.4%	0.7	-3	4
COc1ccc(S(=O)(=O)N2CCN(c3cccc(C)c3C)CC2)c2ccccc12	0.6	-7	-0.9%	.	.	.
CC(=O)c1sc(=S)n(-c2ccccc2)c1C	0.5	10	0.0%	0.8	-4	-5
COc1ccc(CCNc2ncnc3cc(OC)c(OC)cc23)cc1OC	-0.7	-4	0.1%	3.8	22	-6
Fc1cccc(-n2cc(-c3ccccc3)c3c(=S)nc[nH]c32)c1	0.9	-3	1.4%	-2.0	-17	-22
Cc1cc(C(=O)COC(=O)c2ccccc2NCCO)c(C)n1CC1CCCO1 (configuration not stated)	0.2	19	0.4%	3.9	2	-4
O=S(=O)(Nc1ccccc1N1CCOCC1)c1ccc(Cl)cc1	4.1	15	1.7%	0.0	-2	-2
Cc1ccc(C2(c3ccccc3)NC(=O)N(CC(=O)N(C)C3CCS(=O)(=O)C3)C2=O)cc1C (configuration not stated)	-0.2	6	5.8%	-4.7	-4	-2
CCn1c(COc2ccc(C)cc2)nc2ccccc21	-0.3	8	0.0%	-3.3	1	-3
Cc1c(C(=O)O)oc2c3c(ccc12)OCCO3	-1.5	-4	1.7%	-1.4	-4	-20
CCCCc1ccc(NC(=O)CSc2nc3ccccc3nc2N2CCCCC2)cc1	0.7	-15	1.9%	.	.	.
CCN(C(=O)COC(=O)C(c1ccccc1)c1ccccc1)c1c(N)n(Cc2ccccc2)c(=O)[nH]c1=O	-0.4	7	-0.6%	3.1	0	-1
CC(C)C(=O)Nc1ccc(C(=O)CN2C(=O)NC3(CCOc4ccccc43)C2=O)cc1 (configuration not stated)	-0.1	-6	-2.2%	12	-4	-1
COCCCNC(=O)C(=O)N/N=C/c1ccc(OCC(=O)Nc2cccc(Cl)c2C)c(OC)c1	0.0	6	-1.0%	2.4	-6	3
c1ccc(-c2cc(-c3ccccc3)[nH]n2)cc1	.	.	1.6%	-3.6	-8	-22
COc1ccc(-c2oc3cccnc3c2-c2ccc(OC)nc2)cc1	0.2	-3	0.6%	-3.3	-8	1
N#Cc1cccc(NC(=O)c2ccc3c(c2)N(Cc2cccc(Cl)c2)C(=O)c2ccccc2S3(=O)=O)c1	2.7	-17	2.4%	.	.	.
COc1cc(S(=O)(=O)NCc2ccc(F)cc2)ccc1-n1cnnn1	0.4	54	1.5%	-1.4	-10	9
O=C(COc1ccccc1Br)NCCC1=CCCCC1	-0.3	-10	1.8%	-1.0	5	3
O=C(CSc1ccc(F)cc1)NC(=O)c1ccccc1	-0.5	-6	1.1%	-2.0	2	1
COc1cc2c(cc1OC)CN(CCOc1ccc(Br)cc1)CC2	-0.4	-8	-0.1%	-2.6	-8	-15
COc1cccc(CNC(=O)CSc2nc3c(oc4ccccc43)c(=O)n2CC2CCCO2)c1 (configuration not stated)	1.0	13	14%	0.8	-15	7
Cc1cc(C)c(NS(=O)(=O)c2cccc3cccnc23)c(C)c1	-0.5	-18	0.9%	-3.4	1	-7
Cc1ccc(S(=O)(=O)c2nc(-c3ccccc3F)oc2N2CC(C)OC(C)C2)cc1 (configuration not stated)	-0.4	5	0.2%	-5.5	-9	-7
Cc1cc(NC(=O)CCC(=O)N(Cc2ccco2)C(C)(C)C(=O)NC2CCCCC2)no1	0.4	17	-0.6%	-3.2	-7	-23
CCCc1c(C)nn(-c2ncccc2[N+](=O)[O-])c1C	-0.1	10	4.5%	-1.3	-7	-1
CC(C)(C)Cc1c(C2CCCCC2)nc2ccc(Br)cn12	-0.4	20	?	-4.0	-5	10
CN(C)c1cc[n+](CC(=O)Nc2ccc(OC(F)F)cc2)cc1	-0.1	22	2.5%	-3.7	-26	2
CCCn1cnc2cc(NCc3cccs3)ccc21	-0.3	0	-1.3%	-1.0	-5	1
CN(C)c1ccc(/C=C/C(=O)c2ccc3c(c2)OCO3)cc1	84*	-14	9.7%	-3.1	10	17
CSc1ccc(-c2ccc3c(c2)c(Sc2ccccc2)c(-c2ccccc2)n3C)cc1	-0.4	.	3.3%	.	.	10
Cc1nnc(SCC(=O)Nc2cc(C(F)(F)F)ccc2Cl)n1C	1.0	-14	0.5%	-1.6	-1	4
CCOC(=O)Cn1cncc1-c1ccc([N+](=O)[O-])cc1	0.0	-26	-0.4%	-1.0	-11	-1
Cc1ccc(Cn2ccc(NC(=O)c3cc(CC(C)C)on3)n2)cc1	2.5	-5	2.4%	1.8	-1	20
CNS(=O)(=O)c1cccc(C(=O)OCC(=O)Nc2ccc3ccccc3c2)c1	0.7	5	0.9%	-3.3	-5	-4
CN(Cc1ccc(OC(F)F)cc1)C(=O)c1ccc2nccnc2c1	-0.1	-9	0.7%[38.3 µM]	-1.7	-2	2
O=C1OC(c2ccccc2)=CC1=Cc1ccccc1O	0.1	4	-0.9%	-7.6	-17	0
CC(C)CNC1=C(C(=S)Nc2ccccc2)C(=O)CC(C)(C)C1	2.2	-23	2.0%	1.2	-4	-7
Cc1ccc2c(CN3CCN(c4ccc(Cl)cc4)CC3)cc(=O)oc2c1	-0.9	0	-0.3%	.	.	.
Cc1cc(C(=O)Nc2cc(S(C)(=O)=O)ccc2Cl)c(C)o1	-0.4	6	2.5%	-1.0	-4	7
Cc1ccccc1NC(=O)CC1c2ccccc2CC(C)(C)N1C (configuration not stated)	4.9	13	-0.7%	-2.4	-16	0
c1ccc(-c2nc3ccccn3c2NCc2ccc3c(c2)OCO3)cc1	3.8	1	0.5%	-2.4	14	-8
CN(C)CCN1C(=O)C(=O)/C(=C(/O)c2ccc(F)cc2)C1c1ccccc1 (configuration not stated)	0.6	-14	3.4%	-2.4	-7	10
NC1=NN=C(N2N=C(c3ccc(Br)cc3)CC2(O)C(F)(F)F)n2ncnc2C1 (configuration not stated)	-0.5	-1	1.2%	-5.1	-9	?
CCOc1ccc(NC(=O)CCNC(=O)c2ccc(Br)cc2)cc1	0.7	-11	6.2%	-2.5	-6	3
O=C(NC1CCC(O)CC1)c1ccc(-c2ccc([N+](=O)[O-])cc2)o1 (configuration not stated)	-0.6	4	1.3%	2.5	0	-5
CS(=O)(=O)N(CCc1ccccc1)CC(=O)NCc1ccccc1Cl	2.2	5	0.5%	5.6	-2	2

Record cards (already shown). Order of screens: TRPML1 agonist	TRPML1 inh	PINK1 modulator	D2 agonist	D2 PAM	Six1-Eya2 inh
Cc1ccc2c(CN3CCN(c4ccc(Cl)cc4)CC3)cc(=O)oc2c1 as listed: -0.9	0	-0.3%	.	.	.
Cc1ccc(Cn2ccc(NC(=O)c3cc(CC(C)C)on3)n2)cc1 as listed: 2.5	-5	2.4%	1.8	-1	20

More results follow.
smiles	TRPML1 agonist	TRPML1 inh	PINK1 modulator	D2 agonist	D2 PAM	Six1-Eya2 inh
COc1cc(-c2nn3c(-c4cccc(C)c4)nnc3s2)cc(OC)c1OC	0.5	17	?	-0.6	-13	-7
CCCCOc1ncnc2c1[nH]c1ccc(C)cc12	0.5	18	1.5%	1.8	-3	5
O=C(C1CCCN(S(=O)(=O)c2cccc3nsnc23)C1)N1CCc2ccccc2C1 (configuration not stated)	0.1	15	-1.6%	-2.9	-12	-12
OC1(c2cccc(C(F)(F)F)c2)CCN(c2ncnc3c2[nH]c2ccccc23)CC1	0.8	-17	-1.5%	4.4	-15	-3
COc1ccc(-c2csc(NC(C)c3nc4cc(C(F)(F)F)ccc4n3CCOCCO)n2)cc1 (configuration not stated)	0.2	9	15%	-3.1	-8	-14
CCn1nnc2cc(C(=O)Nc3cc(Cl)ccc3C)ccc21	0.2	-10	5.2%	-2.2	0	2
Cc1ccc(-c2nc3scc(CCNC(=O)c4cccc(Br)c4)n3n2)cc1	2.8	-13	7.1%	.	.	.
Cc1ccccc1NC(=O)c1cccc(C(=O)Nc2ccccc2C)n1	2.3	8	2.7%	5.6	1	3
CC(C)CNC(=O)[C@H]1N2C(=O)c3ccccc3C2SC1(C)C (some centres not stated)	0.9	-8	0.2%	-3.6	-7	3

Bioassay records: PubChem BioAssay, National Center for Advancing Translational Sciences (NCATS)
